# High-throughput results (PubChem)
# Six1-Eya2 inh – qHTS Assay for Inhibitors of the Six1/Eya2 Interaction; AlphaScreen GST-Six1/His-Eya2 binding, biochemical; hits give low values; control for the full effect not named in the record; activity change, % (no concentration beside the values); 0.56% of 360,000 active; in the data active = activity change below about -65%; inconclusive = about -30% to -65%; inactive = above about -30%; note: % is set by controls: 0 for no effect and ±100 for the full control effect; compound concentration not given in the record
# Target sequence (O00167 whole entry, looked up): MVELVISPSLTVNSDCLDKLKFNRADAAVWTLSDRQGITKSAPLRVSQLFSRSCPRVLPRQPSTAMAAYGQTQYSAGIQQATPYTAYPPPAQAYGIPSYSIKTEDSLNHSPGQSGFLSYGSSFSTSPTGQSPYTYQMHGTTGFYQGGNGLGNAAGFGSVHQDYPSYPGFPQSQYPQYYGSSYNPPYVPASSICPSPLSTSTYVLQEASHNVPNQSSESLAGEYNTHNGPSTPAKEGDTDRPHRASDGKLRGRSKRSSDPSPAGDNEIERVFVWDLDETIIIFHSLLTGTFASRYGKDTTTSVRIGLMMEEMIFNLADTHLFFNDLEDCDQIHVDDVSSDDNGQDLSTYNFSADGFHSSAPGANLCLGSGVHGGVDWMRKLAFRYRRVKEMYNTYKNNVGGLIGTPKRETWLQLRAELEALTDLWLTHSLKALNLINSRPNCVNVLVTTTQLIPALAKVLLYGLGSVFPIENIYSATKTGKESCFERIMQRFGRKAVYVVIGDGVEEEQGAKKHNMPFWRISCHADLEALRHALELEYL
# Target sequence (Q15475 whole entry, looked up): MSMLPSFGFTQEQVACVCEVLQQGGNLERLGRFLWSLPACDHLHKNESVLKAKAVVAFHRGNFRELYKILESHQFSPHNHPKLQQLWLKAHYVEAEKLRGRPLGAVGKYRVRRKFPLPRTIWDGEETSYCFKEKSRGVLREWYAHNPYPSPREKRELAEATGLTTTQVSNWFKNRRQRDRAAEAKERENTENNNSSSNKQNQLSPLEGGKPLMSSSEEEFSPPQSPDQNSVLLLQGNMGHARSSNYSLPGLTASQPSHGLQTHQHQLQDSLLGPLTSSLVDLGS
#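 Homogeneous AlphaScreen proximity assay pairing GST-Six1 with His-tagged Eya2 (added as 5X mix: 250 nM and 500 nM) in 50 mM Tris pH 8.0, 300 mM NaCl, 1 mM TCEP. Glutathione donor and nickel acceptor beads; 1 h, 37 °C, dark.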
# D2 ag – Beta-Arrestin HTS for Positive Allosteric Modulators of the Human D2 Dopamine Receptor: Agonists; activation, % (test concentration not listed); 0.084% of 360,000 active; DiscoveRx PathHunter D2 beta-arrestin, luminescence, 90 min; 100% = 57 uM dopamine signal; D(2) dopamine receptor (Homo sapiens), P14416; in the data active = activation above about 40%; inconclusive = about 15% to 40%; inactive = below about 15%; note: compound concentration not given in the record; the text of the record calls up to 30% inactive
#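 Agonist mode: compounds alone added to overnight-plated D2 PathHunter cells for 90 min at 37 C, with 57 uM final dopamine (EC100) defining full response. Beta-arrestin recruitment detected by chemiluminescent reagent, read after 1 h at ambient temperature.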
# TRPML1 ag – qHTS for Agonists of the Human Mucolipin Transient Receptor Potential 1 (TRPML1); Mucolipin-1 (Homo sapiens), Q9GZU1; TRPML1-expressing cells, Ca2+ dye fluorescence, FDSS; host cell line not named in the record; reference of the full effect not given here; activation, % (test concentration not listed); 0.12% of 410,000 active; AID 624414, 2012; in the data active = activation above about 50%; inconclusive = about 30% to 50%; inactive = below about 30%; note: 0% is about no effect; the text of the record puts the active cut at 80%
#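 Calcium fluorescence on an FDSS kinetic reader gave the read-out. Tet-induced TRPML1-DL cells were plated overnight, dye-loaded (Ca8 with quencher, 45-90 min, room temperature, dark), then read 110 s after compound addition, and again 110 s after 4uM final 54-4 (EC80).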
# D2 PAM – Beta-Arrestin HTS for Positive Allosteric Modulators of the Human D2 Dopamine Receptor: Potentiators | D(2) dopamine receptor (Homo sapiens), P14416 | 0.23% of 360,000 active | DiscoveRx D2 beta-arrestin cells, luminescence, 90 min; 100% = 57 uM dopamine signal | potentiation, % (concentration not given with the values); active = potentiation of 50% or more; inconclusive = 30% to 50%; inactive = 30% or less;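 note: compound concentration not given in the record; tested on top of an EC20 dose of dopamine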
#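 PathHunter beta-arrestin assay in DiscoveRx D2 cells. Compounds were added with an EC20 of dopamine (50 nM final) for 90 min at 37 deg C. Luminescence was read 1 h after detection reagent, with 57 uM dopamine as the EC100 control.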
# PINK1 expr mod – A Quantitative High throughput Screen to Identify Chemical Modulators of PINK1 Expression; PINK1 immunofluorescence, high-content cytometry, 24 h; Potency, µM (doses to about 76.6 µM), inactives show at the top dose activation (PINK1 increase), most hits filed as activators; 0.2% of 410,000 active; active = well fitted activation curve with a large enough effect; inconclusive = small, poorly fitted or top-dose-only effect; inactive = flat fitted curve, though single readings scatter; cell line not stated here;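 note: potency is the fitted concentration of half-maximal effect; % of control where 0% means no effect; nearly all actives have a fitted effect of over 65% in size; a mitochondrial uncoupler was the plate control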
#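 PINK1 protein, normally rapidly degraded, was detected by immunofluorescence after 24 hour compound treatment of a stable cell line. Titration data (5 concentrations) came from laser-scanning cytometry, with CCCP-treated wells as controls.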
# CtBP-E1A blk – qHTS Assay for Inhibitors of the CtBP/E1A Interaction | CtBP / adenovirus E1A interaction (AlphaScreen) | AlphaScreen GST-E1A/His-CtBP binding, 1536-well; hits give low values; control for the full effect not named in the record | 0.49% of 340,000 active | activity change, % (concentration not given with the values); in the data active means activity change below about -65%; inconclusive means about -30% to -65%; inactive means above about -30%; note: % is set by controls: 0 for no effect and ±100 for the full control effect
#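 In 5 uL wells, 23 nL compound meets equimolar GST-E1A and His-CtBP (5X stock 125 nM each) for 2 h, 37 °C. Beads (5X, 50 ug/mL) then 1 h, 37 °C, dark.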
# The depositor's hits bear a star; ? = inconclusive; / = not tested or not shown; [ ] = another dose, or the depositor's remark. Hits appear at their usual frequency. About 1.3% of those tested had a hit in this group.
# Below each compound – Six1-Eya2 inh, D2 ag, TRPML1 ag, D2 PAM, PINK1 expr mod, CtBP-E1A blk
O=C(Nc1ccc2oc(-c3ccncc3)nc2c1)c1ccc([N+](=O)[O-])o1
    -4, 4.8, 0.3, 16, 9.3%, -1
CC(C)C(=O)Nc1ncc(C(F)(F)F)cc1Cl
    -1, -3.5, -0.3, -8, -0.2%, 10
Nc1nc(-c2cccs2)c(CC(=O)O)s1
    52, -1.1, 0.2, 4, -0.3%, -17
Cc1coc2cc3oc(=O)c(CCC(=O)NCCCN4CCCC4=O)c(C)c3cc12
    2, 3.0, 0.3, 3, -0.6%, 0
O=C(NCC1CCCO1)c1cc2ccccc2nc1Cl (stereo not drawn)
    0, -7.1, -0.1, -5, 0.1%, -3
COC(=O)c1ccccc1NC(=O)c1ccc2c(c1)OCCCO2
    34, -3.9, 3.0, 17, 4.3%, 26
Cc1cccc(CSC2=NCCN2C(=O)C2CC2)c1
    29, -3.7, -0.2, -21, -1.2%, 0
CCCCN(C(=O)c1oc2ccc(OCC)cc2c1C)c1c(N)n(CC(C)C)c(=O)[nH]c1=O
    4, 1.4, -0.6, -15, 19%, 4
COc1ccc(NS(=O)(=O)c2cc(NC(=O)c3cnc(C)cn3)ccc2N2CCCCC2)cc1
    -5, 2.0, -0.4, -5, 1.0%, -7
CCN(CC)S(=O)(=O)c1ccc(NC(=O)CSc2nnc(-c3cccc(OC)c3)n2C)cc1
    -5, 0.3, 1.5, -4, 0.2%[38.3 µM], 1
COc1ccccc1CN1CC(C(=O)N(C)Cc2nc(C)cs2)CCC1=O (stereo not drawn)
    1, -4.3, -0.3, 2, -0.3%, 2
CSC1=NSC2=NC(=O)/C(=C\c3ccc(OC(=O)c4ccco4)cc3)C(=N)N12
    ?, -14, 0.5, 0, 3.2%, 0
O=C(Nc1ccccc1)c1cccc2c(-c3cccnc3)coc12
    -14, 7.2, -0.6, -5, 5.3%, -25
COc1ccc(S(=O)(=O)Nc2ccc(NC(C)=O)cc2)cc1[N+](=O)[O-]
    4, -0.9, -0.3, -8, 0.6%, 9
Cc1ncc(C[n+]2csc(CCOC(=O)C34CC5CC(CC(C5)C3)C4)c2C)c(N)n1
    15, -4.2, 0.9, -5, -0.5%, /
Brc1ccccc1-c1nnc(SCc2nc3ccccc3s2)o1
    15, -4.9, 1.1, -12, -0.4%, 9
Cc1noc(C)c1CSCC(=O)OCc1nc2ccccc2c(=O)n1CC#N
    -3, -1.9, -0.2, -8, ?, 0
O=C(NCCC1CCCCN1S(=O)(=O)c1ccc(Cl)cc1)C(=O)NCc1ccncc1 (stereo not drawn)
    5, 0.0, 0.9, -14, -3.1%, 6
O=C(c1ccccc1)c1ccc2nc(-c3ccc(NC(=O)c4ccccc4Br)cc3)[nH]c2c1
    -2, -0.1, 0.6, 6, 18%[38.3 µM], 0
CC1Cc2c([nH]c3ccccc23)C(=O)N1 (stereo not drawn)
    -3, 1.1, -0.4, -2, 0.7%, 7

# Results in D2 PAM and Six1-Eya2 inh, for 4 of the compounds above:
SMILES,D2 PAM,Six1-Eya2 inh
O=C(Nc1ccccc1)c1cccc2c(-c3cccnc3)coc12,-5,-14
COc1ccc(S(=O)(=O)Nc2ccc(NC(C)=O)cc2)cc1[N+](=O)[O-],-8,4
Cc1ncc(C[n+]2csc(CCOC(=O)C34CC5CC(CC(C5)C3)C4)c2C)c(N)n1,-5,15
Brc1ccccc1-c1nnc(SCc2nc3ccccc3s2)o1,-12,15

# (further entries)
# Below each compound – Six1-Eya2 inh, D2 ag, TRPML1 ag, D2 PAM, PINK1 expr mod, CtBP-E1A blk
Cc1cccc(C)c1NC(=O)CNC(=O)C(C)NC(C)c1ccccc1Br (stereo not drawn)
    0, -1.9, 0.9, -14, 2.7%, 3
COC(OC)c1ccc(C#N)c(SCc2ccc(C)cc2)n1
    55, 8.9, 2.7, -3, 2.3%, 8
CCN(CC)c1ccc(NC(=O)CSc2nc3nc(C)cc(C)c3c(=O)[nH]2)cc1
    ?, -3.1, 2.0, -2, -2.0%, -16
CC(C)(C)[C@H]1C=C(C(N)=O)O[C@@H](OCc2ccc(CO)cc2)C1
    1, 1.3, -0.8, -12, -0.1%, -2
O=C(c1ccc(Cl)cc1[N+](=O)[O-])N1CCOCC1
    4, -0.2, -0.1, 5, 0.6%, 6
CCC(=O)Nn1c(C)nnc1C
    11, -1.9, 0.4, -9, 3.5%, -5
O=C(Nc1ccc2nc3n(c(=O)c2c1)CCCC3)c1ccccc1F
    -18, -6.9, /, 4, 2.9%, -3
Cc1nc2c(sc(=S)n2Cc2ccco2)c(=O)n1CC(=O)Nc1ccccc1Cl
    10, -1.6, 0.9, -13, 8.4%, 22
O=C(CCCCCN1C(=O)c2cccc3cccc(c23)C1=O)NC1CCS(=O)(=O)C1 (stereo not drawn)
    1, -0.6, 0.6, -1, -0.2%, 10
O=C(Nc1ccccc1)Oc1ccc[nH]c1=O
    8, 2.7, 0.0, -1, 0.8%, -2
Cc1cc(C)cc(NC(=O)CSc2nnc(CNC(=O)c3cccs3)o2)c1
    -2, -4.1, -0.9, -5, -1.4%, 8
CSc1ccc(C2=CC(=O)C[C@H](c3ccc(F)cc3)C2)cc1
    1, -2.8, 3.0, -3, 0.3%, 0
Cc1ccc(S(=O)(=O)N2CCOc3ccccc32)c(C)c1NS(C)(=O)=O
    3, 5.2, -0.5, -5, 1.4%, /
CCOC(=O)C1=C(N)Oc2c(oc(CO)cc2=O)C1c1ccccc1 (stereo not drawn)
    3, -1.8, -0.6, -14, 0.1%, 13
O=C(Nc1cccc(C(F)(F)F)c1)c1cccnc1N1CCN(CCO)CC1
    -2, -2.4, -0.5, 4, 2.1%, 4
O=S(=O)(c1cccs1)N1CCCc2ccccc21
    13, -1.3, 0.5, -13, 0.8%, 11
C=CCN(C(=O)c1csnn1)C(C(=O)NC1CCCC1)c1ccccc1F (stereo not drawn)
    8, -5.7, -0.1, -7, 0.2%, 0
CN(Cc1nc(-c2cnccn2)no1)Cc1n[nH]c2c1CCCC2
    -19, -2.4, 0.0, -3, 1.5%, -3
COc1ccc(CN(CCC(c2ccccc2)c2ccc(OC(C)C)cc2)C(=O)CCl)cc1OC (stereo not drawn)
    -4, 3.0, 2.6, -19, -2.7%, 2
CCOc1ccc(OCCC(=O)OCC(=O)Nc2cccc(S(=O)(=O)N3CCCCC3)c2)cc1
    -8, 3.0, 1.2, -5, -0.6%, /

# The results go on:
Structure	Six1-Eya2 inh	D2 ag	TRPML1 ag	D2 PAM	PINK1 expr mod	CtBP-E1A blk
CCCN(CCC)CCCNC(=O)c1ccc(CS(=O)(=O)c2c(Cl)cccc2Cl)o1	3	-0.4	-0.7	-24	3.9%	3
CN(Cc1ccccc1)/C(=N/O)c1cccc(Cl)c1	-12	6.2	/	24	5.2%	5
NC(=O)C1CCN(c2ncc(C(F)(F)F)cc2Cl)CC1	3	-3.5	-0.1	0	-1.4%	1
O=C(Nc1ccccc1)Nc1ccncc1	-1	-5.8	-0.4	-10	0.2%	11
CC(=O)c1cccc(NC(=O)/C=C/c2ccc(S(=O)(=O)N3CCOCC3)cc2)c1	-7	2.9	-0.5	3	1.6%	-7
CCCN1C2=NCCN2c2cc(C)c(C)cc21	6	0.3	0.6	-23	-0.2%	3
COc1cccc2cc(C(=O)N(C)C3CCN(C)CC3)c(=O)oc12	0	-5.7	-0.1	0	-0.2%	4
Cc1ccc(OC(=S)Nc2ccc(O)cc2)cc1	-5	-0.2	-0.8	-18	2.3%	1
CC1(C)CC(=O)c2sc(NC(=O)Cc3cccs3)nc2C1	-3	-2.2	2.8	-18	-0.1%	-6
COC(C)c1oc2c(C)c3oc(=O)cc(C)c3cc2c1C (stereo not drawn)	-6	2.1	0.1	-8	1.2%	-2
COCCSc1ccccc1C(=O)Nc1cc(C)ccn1	19	-1.2	1.9	-6	5.3%	4
Cc1cc(NC(=O)CCC(=O)N(CC(=O)NC2CCCC2)c2cccc(C)c2C)no1	4	-2.4	-0.3	-11	-0.4%	-1
CN(Cc1ccccc1F)C(=O)CN1c2cccc3cccc(c23)S1(=O)=O	6	-2.6	0.9	-7	-3.9%	-3
COc1ccc(N=Nc2ccc(CO)cc2)cc1	?	1.3	-0.6	5	1.2%	-7
Brc1ccc(/C=N/Nc2nc3ccccc3o2)cc1	-8	2.4	1.7	-7	1.3%	-13
CCCN(CC(=O)Nc1ccccc1OC)C(=O)c1ccc(COc2ccccc2)o1	-5	9.4	1.4	2	-0.2%	-1
COc1ccc(NC(=O)N2CCCC(CNS(=O)(=O)c3cccs3)C2)c(C)c1 (stereo not drawn)	2	-6.2	-1.7	-7	0.6%	-4
CCOc1ccc(-c2nnc(-c3cccs3)o2)cc1	6	-4.9	1.5	-7	6.0%	1
Cc1ccc(C)c(N(C(=O)c2csnn2)C(C(=O)NC2CCCCC2)c2ccccn2)c1 (stereo not drawn)	12	-4.6	0.2	-3	1.3%	19
CC(C)(C)c1ccc(NC(=O)COC(=O)c2ccc3ncsc3c2)cc1	-9	7.1	0.8	-8	4.8%	-16
COc1ccccc1C(CNC(=O)CNC(=O)c1ccc(Cl)c(Cl)c1)N1CCCC1 (stereo not drawn)	6	-2.4	0.9	-12	1.7%	12
CCN1CCN(c2nn3c(=O)c4ccccc4nc3c3ccccc23)CC1	?	-4.1	-0.8	-8	2.8%	-20
COc1ccc(N2CCN(C(=O)CCc3nnc4ccc(N5CCOCC5)nn34)CC2)cc1	9	3.6	-0.2	-2	1.4%	-6
Cc1cc(Br)c(OCc2ccc(C(=O)N/N=C3\CC(=O)CC(C)(C)C3)cc2)c(Br)c1	3	2.4	1.5	-4	13%	1
O=C1CCN(Cc2ccccc2)C(=O)N1	1	-0.8	-0.2	-9	2.3%	3
COc1ccc(CCNC(=O)CN2c3cccc4cccc(c34)S2(=O)=O)cc1OC	-9	0.5	0.5	-5	2.1%	5

# A different layout for part of the listing above.
CC(C)(C)c1ccc(NC(=O)COC(=O)c2ccc3ncsc3c2)cc1
- Six1-Eya2 inh = -9
- D2 ag = 7.1
- TRPML1 ag = 0.8
- D2 PAM = -8
- PINK1 expr mod = 4.8%
- CtBP-E1A blk = -16
COc1ccccc1C(CNC(=O)CNC(=O)c1ccc(Cl)c(Cl)c1)N1CCCC1 (stereo not drawn)
- Six1-Eya2 inh = 6
- D2 ag = -2.4
- TRPML1 ag = 0.9
- D2 PAM = -12
- PINK1 expr mod = 1.7%
- CtBP-E1A blk = 12
